Compound activity: PubChem BioAssay, several laboratories
Bead autofluor = counter-screen for toxin protease inhibitors: compound fluorescence; fluorescence intensity (test concentration not listed); compound autofluorescence counterscreen, microsphere flow cytometry; active compounds read high; 360,000 compounds, 3.1% hits;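 active means at least 3 SD above the mean of all compounds, about 16000 in these data; inconclusive means too few beads counted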;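 further: 100 nL of 1 mM stock went into each well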
Sa RN4220 lethal = S. aureus RN4220 growth inhibition; OD600, 16 h; inhibition, % (no concentration beside the values); 330,000 compounds, 0.33% hits; AID 1259311;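 active means z-score of -3 or lower and OD600 up to 0.18 on both plates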;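 further: plate controls were untreated cells for no effect and reference antibiotic for full effect; stock transfer was 100 nL into about 80 µL; one replicate is shown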
PrP UTR inh = suppresses PrP 5' UTR mRNA reporter expression. cell-based PrP 5' UTR mRNA reporter, plate reader. AID 488862. inhibition, % (no concentration beside the values). 340,000 compounds, 0.35% hits;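 active means every replicate at 50% or more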;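 further: 0 = median of the neutral control wells; tested in H4 reporter cells; numbers are from one replicate; inactives centre near -14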
BJeLR viability = BJeLR cell viability loss; BJeLR (HRASV12) viability, CellTiter-Glo ATP luminescence, 48 h; reference of the scale not given here; inhibition, % (no concentration beside the values); 300,000 compounds, 0.17% hits; AID 1554;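 active means replicate mean above 50%; inconclusive means above 50% but judged a plate artefact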;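 further: 50 nL library stock added to about 25 µL; numbers are from one replicate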
Mtb hypoxia inh = inhibitors of hypoxia-regulated fluorescent reporter in Mycobacterium tuberculosis; M. tuberculosis hypoxia-regulated fluorescent reporter, fluorescence; fluorescence inhibition, % (concentration not given with the values); 300,000 compounds, 0.1% hits;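 active means 35 to 45% if threefold the growth effect, above 45% if 1.5-fold the growth effect; inactive means the rest, general growth blockers included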;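 further: wells of about 50 µL received 100 nL stock; 0% = vehicle wells and 100% = reference inhibitor wells; whole bacteria with a GFP reporter of the hypoxia response; strong numbers were not always called active; many hits fall short of the cut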
ugtP null kill = compounds lethal to S. aureus RN4220 ugtP deletion mutant; OD600 growth, 16 h; some inactives read as strong as hits; growth inhibition, % (no concentration beside the values); AID 1259309; 330,000 compounds, 0.54% hits;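 active means z-score under -3 and OD600 up to 0.15 on both plates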;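 further: plate controls were untreated wells for no effect and antibiotic for full effect; wells of about 80 µL received 100 nL stock; the first replicate is given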
Mtb hypoxia inh growth = further read-out of Mtb hypoxia inh, marked with its call; growth inhibition, %; measured here: M. tuberculosis growth (absorbance);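 0% = vehicle and 100% = reference antibiotic; read after six days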
The depositor's hits bear a star; ? = inconclusive; · = not tested or not shown; & = joins results of further samples.

SMILES	Bead autofluor	Sa RN4220 lethal	PrP UTR inh	BJeLR viability	Mtb hypoxia inh	Mtb hypoxia inh growth	ugtP null kill
COc1ccc(-n2cc(CN(C)C(C)c3ccncn3)c(-c3cccc(F)c3)n2)cc1 (stereo not drawn)	3294	2.9	8	-9	-13	8	1
CCCc1c(C)nc(N2CCN(c3ccccc3F)CC2)[nH]c1=O	3165	1.5	-14	-8	0	2	11
O=C(Nc1ccccc1)c1ccccc1NC(=O)C1CCCCC1	4166	-0.6	-6	-2	·	·	6
CCOc1ccc(C(C)NC(=S)NCc2ccc(F)cc2)cc1 (stereo not drawn)	5539	-5.5	-16	-9	7	9	-6
CCOC(=O)N1CCN(C(=O)/C(=C/c2cccc3ccccc23)NC(=O)c2ccc(OC)c(OC)c2)CC1	8927	6.6	-10	-20	-12	1	9
Cc1cccc(C(=O)N(Cc2cccs2)C2CCS(=O)(=O)C2)c1 (stereo not drawn)	5280	4.6	-21	8	3	-1	1
CCCN(CCC)CCNc1c(NC2CCN(C(=O)OCC)CC2)c(=O)c1=O	5698	6.9	-2	2	3	5	5
CC[C@@H]1CCCCc2ccccc2[C@H](C(=O)C[C@H](O)CC(C)=O)OC1=O	3975	6.7	-21	·	-9	1	3
COc1ccc(/C=C(/C(=O)Nc2ccccc2C(=O)N2CCCC2)c2ccccc2)cc1	22608*	9.0	-34	-6	3	9	-13
O=C1C2C(C(=O)N1c1nccs1)C1C=CC2C12CC2 (stereo not drawn)	2076	-1.0	1	-1	-5	15	-4
CC1C=CCC2C(=O)N(c3ccccc3OC(=O)c3cccs3)C(=O)C12 (stereo not drawn)	2188	1.5	-31	-6	1	3	0
Cc1nnsc1C(=O)NC(C)C12CC3CC(CC(C3)C1)C2 (stereo not drawn)	9914	7.9	-65	5	12	7	-13
CN1CCN(C(=O)c2ccc3c(=O)n(-c4ccc(F)cc4)c(=S)[nH]c3c2)CC1	4380	9.7	-22	-10	10	8	4
O=C(CN1CC[n+]2c(-c3ccccc3)csc21)c1ccc(Br)cc1	5329	1.5	·	-7	10	3	5
CCCCN(C(=O)Cc1cccc(F)c1)c1c(N)n(CCC)c(=O)[nH]c1=O	4003	-1.1	-9	-5	15	7	9
CC(=NNC(=O)c1ccccc1Br)c1ccc(N2CCOCC2)cc1	·	-1.2	·	·	-1	-2	-2
CCOC(=O)C1C2COc3cc(OC)ccc3C2N2C(=O)N(c3cccc(C)c3)C(=O)[C@]12C (stereo partly drawn)	·	1.6&2.0	·	·	6&-3	10&4	-1&9
Cc1ccc(CNC(=O)C(=O)c2cn(CC(=O)N3CCCC3)c3ccccc23)cc1	4519	2.2	-14	0	2	7	16
O=C(N/N=C/C=C/c1ccccc1[N+](=O)[O-])c1cccs1	2709	·	-15	7	·	·	·
CCC(C)N1CCN(C(=O)c2cccs2)CC1 (stereo not drawn)	3293	4.1	-23	·	11	3	-6
CCN(CC)CC#CCC(O)(c1ccccc1)c1ccc(Br)cc1 (stereo not drawn)	4260	-0.9	-26	-6	18	8	5
O=C(CNC(=O)c1ccc(Br)o1)NNC(=O)c1ccccc1	?	2.1	-12	·	2	2	3
Cc1ccc([N+](=O)[O-])cc1S(=O)(=O)Nc1cccc(S(=O)(=O)NC2=NCCC2)c1	3712	1.6	-6	·	6	9	8
CC(=O)c1cccc(NC(=S)NCCc2ccc(Cl)cc2)c1	3161	2.6	-1	-4	9	9	0
Cc1cc(C)[n+](C)n1CC(O)Cn1c2ccccc2c2ccccc21 (stereo not drawn)	3422	1.2	-18	-4	6	15	3

One compound at a time, from the list above. Values in the order: Bead autofluor, Sa RN4220 lethal, PrP UTR inh, BJeLR viability, Mtb hypoxia inh, Mtb hypoxia inh growth, ugtP null kill
Cc1nnsc1C(=O)NC(C)C12CC3CC(CC(C3)C1)C2 (stereo not drawn) as listed: 9914, 7.9, -65, 5, 12, 7, -13
CCCc1c(C)nc(N2CCN(c3ccccc3F)CC2)[nH]c1=O as listed: 3165, 1.5, -14, -8, 0, 2, 11

Going on with the list.
SMILES	Bead autofluor	Sa RN4220 lethal	PrP UTR inh	BJeLR viability	Mtb hypoxia inh	Mtb hypoxia inh growth	ugtP null kill
C#CCCOC(=O)N1C2=NC(C(=O)OC)=C(C(=O)OC)C3N(Cc4ccccc4)c4ccccc4[C@]23CC1C(=O)OC (stereo partly drawn)	·	0.5	·	·	-7	8	3
O=C(COc1ccc([N+](=O)[O-])cc1Cl)NCCc1ccccc1	2577	3.8	-10	-6	15	11	-5
N#Cc1cccc(NC(=O)CC2CCCCC2)c1	8264	5.2	-32	17	14	24	-6
CC1CCCC(NS(=O)(=O)c2cc3c(cc2Cl)NC(=O)CO3)C1C (stereo not drawn)	5761	6.3	-8	-4	·	·	9
Cc1cccc2cc3c(N)c(C(=O)N4CCCc5ccccc54)sc3nc12	3496	-5.4	4	19	16	9	-10
N#CCCN(C(=O)COC(=O)CCc1nc2ccccc2c(=O)[nH]1)c1ccc(F)cc1	3081	2.1	-6	·	-12	-3	-4
Cc1ccc(NC(=O)CS(=O)CC(=O)N(c2ccc(C)cc2)C(C)C(=O)NC2CCCCC2)cc1 (stereo not drawn)	3094	0.1	-11	-7	-4	4	-8
NS(=O)(=O)c1ccc(CCNC(=O)C(=O)c2cn(CC(=O)N3CCOCC3)c3ccccc23)cc1	5826	3.6	-17	-1	7	3	-3
Cc1ccc(Cl)cc1N1CCN(C(=O)C2CCN(S(=O)(=O)c3cccnc3)CC2)CC1	2102	-2.2	-16	-6	·	·	6
CN1C(=O)CC(C(=O)O)SC1=Nc1cc(Cl)c(O)c(Cl)c1 (stereo not drawn)	8651	0.2	-21	8	16	-1	1
Cc1ccc(S(=O)(=O)N2CCN(C(=O)c3ccc4c(c3)OCO4)CC2)cc1	3290	0.6	-3	-12	1	-1	9
O=P1(Nc2cccnc2)COc2ccccc2OC1	9880	-0.7	-24	-12	2	12	-2
CCOC(=O)C1CCN(c2ncnc3c2oc2ccc(Cl)cc23)CC1	2079	14	-17	0	5	4	12
CCOC(=O)C1=C(CNCCc2ccc(Cl)cc2)NC(=O)NC1c1ccc2c(c1)OCO2 (stereo not drawn)	4236	7.8	-12	-3	·	·	-15
COC(=O)c1cc(NC(=S)N2CCN(c3ccccn3)CC2)cc(C(=O)OC)c1	4042	-0.3	-30	0	-5	9	-7
Oc1ccc(/C(Cc2ccccn2)=N\Nc2ccccc2)c(O)c1	4515	·	-7	-2	·	·	·
O=C(OCCc1cc2ccccc2c(=O)o1)c1ccc2c(c1)OCO2	3606	11	-18	·	9	10	20
Cc1cc(C)nc(/N=C(/NC(=O)Nc2ccc(Cl)c(Cl)c2)Nc2cccc(Cl)c2)n1	7110	·	-26	-18	·	·	·
COc1ccc(CC(=O)NC2CCSc3ccccc32)cc1OC (stereo not drawn)	5377	-2.8	-14	7	5	3	3
c1ccc(-c2nc(-c3ccncc3)n[nH]2)nc1	5742	1.7	-6	10	-13	-16	-3
O=C(Nc1ccc(CN2CCS(=O)(=O)CC2)cc1)c1ccccc1	5682	2.5	-30	4	6	3	12
COc1ccc(NC(=S)NC2CCCCC2)cn1	4593	5.2	-10	-9	10	1	1
OC1COC(O)C(O)C1O (stereo not drawn)	4523	-0.7	-8	-9	-3	-3	-2
Cc1c(C(=O)NN=CC(C)C)[nH]c2ccc([N+](=O)[O-])cc12	·	-5.5	·	·	2	5	3
COc1ccc(CNC(=O)CN2C(=O)COc3ccc(S(=O)(=O)N4CCC(C)CC4)cc32)cc1	6214	1.0	-1	-3	15	5	-6

5 entries already listed, ordered by heavy-atom count, largest number first:
SMILES	Bead autofluor	Sa RN4220 lethal	PrP UTR inh	BJeLR viability	Mtb hypoxia inh	Mtb hypoxia inh growth	ugtP null kill
CCOC(=O)C1=C(CNCCc2ccc(Cl)cc2)NC(=O)NC1c1ccc2c(c1)OCO2 (stereo not drawn)	4236	7.8	-12	-3	·	·	-15
COC(=O)c1cc(NC(=S)N2CCN(c3ccccn3)CC2)cc(C(=O)OC)c1	4042	-0.3	-30	0	-5	9	-7
COc1ccc(CC(=O)NC2CCSc3ccccc32)cc1OC (stereo not drawn)	5377	-2.8	-14	7	5	3	3
N#Cc1cccc(NC(=O)CC2CCCCC2)c1	8264	5.2	-32	17	14	24	-6
c1ccc(-c2nc(-c3ccncc3)n[nH]2)nc1	5742	1.7	-6	10	-13	-16	-3

Further records follow.
SMILES	Bead autofluor	Sa RN4220 lethal	PrP UTR inh	BJeLR viability	Mtb hypoxia inh	Mtb hypoxia inh growth	ugtP null kill
CC(C)CNC(=O)NC(=O)COC(=O)c1cccc(NS(=O)(=O)c2ccc(F)c(F)c2)c1	2548	4.4	-1	7	0	3	-2
CCN(CC)S(=O)(=O)c1ccc(NN=Cc2ccccc2OCC(=O)O)c([N+](=O)[O-])c1	·	0.9	·	·	10	-4	1
COc1ccccc1-n1c(SCC(=O)OC(C)C)nc2cccnc21	3501	3.9	-19	6	9	0	0
CCc1n[nH]c(=S)n1N=Cc1ccccc1OCc1ccc(Cl)cc1	·	6.0	·	·	3	4	2
Cc1ccc(NC(=O)CSc2nnc(-c3ccccn3)n2N)cc1F	·	4.5	·	4	1	2	2
CN(C(=O)COC(=O)c1cc([N+](=O)[O-])ccc1Sc1ccccc1)C1CCS(=O)(=O)C1 (stereo not drawn)	3967	·	-27	9	·	·	·
CCOC(=O)c1sc(NC(=O)C(CC)Sc2nnc3c4ccccc4n(CC)c3n2)nc1C (stereo not drawn)	3505	2.7	·	3	8	4	2
CCOC(=O)NC(=O)/C(C#N)=C(/C)N(C)C	4290	3.0	-17	1	12	1	7
CC1(C)Cc2c(C#N)c(OCC(=O)c3ccc(Cl)cc3)nc(-c3ccco3)c2CO1	5237	2.3	-16	2	·	·	-7
O=C(Nc1ccsc1C(=O)O)c1cccc(Oc2ccccc2)c1	3868	19	-22	15	3	-8	6
CONC(=O)c1cc(OCC(F)(F)F)ccc1OCC(F)(F)F	·	4.5	-25	3	14	26	8
Cc1ccc(S(=O)(=O)N2CCC(C(=O)Nc3ccc4c(c3)OCO4)CC2)cc1	10033	-1.4	-15	-9	6	11	-5
Cc1cc(C)nc(Nc2cccc3ccccc23)n1	3834	8.8	-20	13	12	2	8
CCOc1ccccc1C(=O)NC1CCNCC1	3428	0.7	1	0	-3	-1	5
CCCC[C@@H]1C=C(C(=O)O)[C@H](c2ccc(C#N)cc2)N1S(=O)(=O)c1ccc(C)cc1	3774	6.0	11	·	-5	-2	-2
O=C(NCc1cccnc1)C(Cl)(Cl)Cl	2453	1.7	19	0	8	6	5
Cc1ccc(S(=O)(=O)NCC(=O)NN=Cc2ccc(Cl)cc2Cl)cc1	·	-11	·	·	4	7	-11
O=c1ccc2ccc(OCc3nnc(-c4ccccc4Br)o3)cc2o1	5183	8.5	-22	12	8	12	5
Cc1ccc(S(=O)(=O)/N=C(/c2ccc(F)cc2)N(C)C)cc1	3048	·	-17	-10	·	·	·
Cc1cc(C)n(-c2nc(-n3nc(C)cc3C)c3c4c(sc3n2)COC(C)(C)C4)n1	·	6.7	·	2	3	6	1
O=C(O)c1ccc(N/N=C/c2ccc(-c3ccc(Br)cc3)o2)cc1	5704	·	-32	-11	·	·	·
O=c1cc(-c2cccc(Br)c2)nc(-c2ccccc2F)o1	1988	1.1	0	6	·	·	-3

Copied from the results shown (2 entries):
SMILES	Bead autofluor	Sa RN4220 lethal	PrP UTR inh	BJeLR viability	Mtb hypoxia inh	Mtb hypoxia inh growth	ugtP null kill
CC(C)CNC(=O)NC(=O)COC(=O)c1cccc(NS(=O)(=O)c2ccc(F)c(F)c2)c1	2548	4.4	-1	7	0	3	-2
CCN(CC)S(=O)(=O)c1ccc(NN=Cc2ccccc2OCC(=O)O)c([N+](=O)[O-])c1	·	0.9	·	·	10	-4	1

Some of the entries so far, with two lines to a compound:
Each structure is followed by: Bead autofluor | Sa RN4220 lethal | PrP UTR inh | BJeLR viability | Mtb hypoxia inh | Mtb hypoxia inh growth | ugtP null kill
- CC(C)CNC(=O)NC(=O)COC(=O)c1cccc(NS(=O)(=O)c2ccc(F)c(F)c2)c1
→ 2548 | 4.4 | -1 | 7 | 0 | 3 | -2
- CCN(CC)S(=O)(=O)c1ccc(NN=Cc2ccccc2OCC(=O)O)c([N+](=O)[O-])c1
→ · | 0.9 | · | · | 10 | -4 | 1
- COc1ccccc1-n1c(SCC(=O)OC(C)C)nc2cccnc21
→ 3501 | 3.9 | -19 | 6 | 9 | 0 | 0
